# FPR – FPR binders displacing fluorescent formyl peptide, primary screen, U937-FPR cells, fMLFK-FITC, flow cytometry (AID 362) | U937-FPR cells, fMLFK-FITC displacement, flow cytometry; hits give high values; test concentration not given here; most inactive calls were filed without a number and no value below 0 was filed | inhibition, % | hit rate 1% among 4,300;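 active means inhibition of labelled peptide binding to the formyl peptide receptor of at least 65%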;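 further: plate controls were buffer control wells for no effect and unlabeled fMLFF blocking peptide for full effect; higher means less cell fluorescence so more probe displaced; part of the set was picked by virtual screening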
# The depositor's hits bear a star; i = inactive.
SMILES,FPR
CC(C)c1ccc(-c2csc(NC(=O)C3C4CCC(C4)C3C(=O)O)n2)cc1 (centres undefined),16
O=C(CSc1nc2ccccc2c(=O)n1CC1CCC(C(=O)NCC2CCCO2)CC1)Nc1nccs1 (centres undefined),7
CC(C)COC(=O)n1ccc(C(=O)N2CCCCC2)n1,i
COC(=O)C1C(=O)C2=C(CC1C)NC(C)=C(C(=O)OC1CCCCC1)C2c1ccccc1OC (centres undefined),i
COc1ccc(S(=O)(=O)NCC2CCC(C(=O)NCc3ccc4c(c3)OCO4)CC2)cc1 (centres undefined),i
COC(=O)C1C(=O)C2=C(CC1C)NC(C)=C(C(=O)OC1CCCC1)C2c1ccc(OC)cc1 (centres undefined),8
Cc1cccc(NC(=O)C2CCC(CNS(=O)(=O)c3cccs3)CC2)c1 (centres undefined),i
CC(C)Cn1c(SCc2ccccc2)nnc1-c1ccncc1,29
O=C(O)C1CCCCC1C(=O)Nc1ccc(N2CCOCC2)c2nonc12 (centres undefined),i
CCOC(=O)C1=C(C)NC2=C(C(=O)C(C(=O)OCC)C(c3cccc(OC)c3)C2)C1c1ccccc1C(F)(F)F (centres undefined),i
CC(=O)N1CCCc2cc(S(=O)(=O)NC(C(=O)Nc3ccccc3C)C(C)C)ccc21 (centres undefined),i
COc1ccc2c(=O)c(Oc3ccccc3Br)c(C(F)(F)F)oc2c1,i
COc1ccc(S(=O)(=O)NCC2CCC(C(=O)NC3CCCC(C)C3C)CC2)cc1 (centres undefined),i
CC(C)C1=CC23CCC4C(C)(C(=O)O)CCCC4(C)C2CC1C1C(=O)N(c2cccc([N+](=O)[O-])c2)C(=O)C13 (centres undefined),34
CC(=O)N1CCCc2cc(S(=O)(=O)NC(C(=O)NCc3ccccc3)C(C)C)ccc21 (centres undefined),i
CC1=C(C(=O)OC2CCCCCC2)C(c2cccc([N+](=O)[O-])c2)C2=C(CC(C)(C)CC2=O)N1 (centres undefined),i
COc1cc(C2NC(=O)NC(C)=C2C(=O)OC2CCCCC2)ccc1O (centres undefined),6
CCOC(=O)C1C(=O)C=C(c2ccc(OC)c(OC)c2)CC1c1ccccc1 (centres undefined),i
O=C1C2C3C=CC(C3)C2C(=O)N1c1ccc(NCCc2ccccc2Cl)c([N+](=O)[O-])c1 (centres undefined),i
O=C(CSc1nc2ccccc2c(=O)n1CC1CCC(C(=O)NCc2ccccc2Cl)CC1)NCC1CCCO1 (centres undefined),16
CCc1c(C)c(C#N)c2nc3ccccc3n2c1N1CCN(CCO)CC1,i
CCc1ccc(C2C(C(=O)OC)=C(N)OC3=C2C(=O)CC(C)(C)C3)cc1 (centres undefined),3
CCOC(=O)c1cc2c(=O)n3ccccc3nc2n(CC(C)C)c1=NC(=O)c1cccc(F)c1,16
COc1ccc(Oc2c(C(F)(F)F)oc3c(CN4CCCC4)c(O)ccc3c2=O)cc1,7
CC1CCN(S(=O)(=O)c2cn(CC(=O)Nc3ccc(F)cc3)c(=O)c3ccccc23)CC1,i

# A stretch of the results above, for reference:
SMILES,FPR
CCc1c(C)c(C#N)c2nc3ccccc3n2c1N1CCN(CCO)CC1,i
CCc1ccc(C2C(C(=O)OC)=C(N)OC3=C2C(=O)CC(C)(C)C3)cc1 (centres undefined),3
CCOC(=O)c1cc2c(=O)n3ccccc3nc2n(CC(C)C)c1=NC(=O)c1cccc(F)c1,16
COc1ccc(Oc2c(C(F)(F)F)oc3c(CN4CCCC4)c(O)ccc3c2=O)cc1,7
CC1CCN(S(=O)(=O)c2cn(CC(=O)Nc3ccc(F)cc3)c(=O)c3ccccc23)CC1,i

# More records follow:
SMILES,FPR
COC(=O)c1ccccc1NC(=O)C(C(C)C)N1C(=O)c2ccccc2C1=O (centres undefined),i
COc1ccc2c(c1)OC(O)(C(F)(F)F)CC2=O (centres undefined),i
CS(=O)(=O)N1CCCC(C(=O)N2CCCCC2)C1 (centres undefined),i
COc1ccc(C2CC(=O)C3=C(C2)NC(C)=C(C(=O)OCC(C)C)C3c2cc3c(cc2Br)OCO3)cc1 (centres undefined),i
CCOc1cccc(C2C(C(=O)OC3CCCC3)=C(C)NC3=C2C(=O)C(C(=O)OC)C(C)C3)c1 (centres undefined),29
O=C(O)c1cccc2c1NC(C(=O)O)C1CC=CC21 (centres undefined),4
COc1ccccc1-c1c(C(F)(F)F)oc2c(CN3CCCC(C)C3)c(O)ccc2c1=O (centres undefined),18
COc1ccc(CCNC(=O)Cn2cc(S(=O)(=O)N3CCC(C)CC3)c3ccccc3c2=O)cc1OC,30
CCOC(=O)c1c(C)oc2c1c(C(c1cccnc1)N1CCCCC1)c(O)c1ccccc12 (centres undefined),20
CCCc1cc(=O)oc2c(C)c(OC3CCCCC3=O)ccc12 (centres undefined),i
COc1ccc2c(c1)C(C)=CC(C)(C)N2C(=O)CSc1nccn1C,18
CC(=O)N1CC2(C(C)C)CN(C(C)=O)CC(C(C)C)(C1)C2=O,i
CCOc1ccc(N2C(N)=NC(N)=NC23CCCC3)cc1,i
CC(C)CC(C(=O)Nc1ncn[nH]1)N1C(=O)c2ccccc2C1=O (centres undefined),i
CC1=C(C(=O)OCC(C)C)C(c2ccc([N+](=O)[O-])cc2)NC(=O)N1C (centres undefined),i
Cc1ccc(NC(=O)CSc2nc(-c3ccccc3)nc3c2CCCC3)cc1,i
CC(C)Cn1cc(C(=O)NC(C)c2ccc3c(c2)OCCO3)c2c3ccccc3n(C)c2c1=O (centres undefined),i
CC(C)Cn1cc(C(=O)NCC2CCCO2)c2c3ccccc3n(C)c2c1=O (centres undefined),6
CCOC(=O)N1CCN(C(=O)Cn2cnc3sc(C)c(S(=O)(=O)N4CCC(C)CC4)c3c2=O)CC1,i
Cc1ccc(Oc2c(C(F)(F)F)oc3c(CN4CCN(C)CC4)c(O)ccc3c2=O)cc1,10
COc1cc2c(C(=O)N(C)c3ccc(F)cc3)cn(CC(C)C)c(=O)c2cc1OC,i
O=C(NC1(C(F)(F)F)C(=O)Nc2c1c(=O)[nH]c(=O)n2-c1ccc(F)cc1)c1ccccc1Cl (centres undefined),11
COc1cccc(C2C(=O)N(C3CCC(C)CC3)CC(=O)N2CCC2=CCCCC2)c1OC (centres undefined),i
CCCCCn1c(SC(C(=O)NCc2ccccc2)C(=O)NCc2ccccc2)nc2ccccc2c1=O,7
COc1cc(C2C(C(=O)OC3CCCCC3)=C(C)NC3=C2C(=O)CC(C)(C)C3)ccc1O (centres undefined),i

# Going on with the list.
SMILES,FPR
CCCc1c(C(=O)OCC)[nH]c2c1C(=O)CC(c1ccc(F)cc1)C2 (centres undefined),15
COc1ccc(C2(C(F)(F)F)N=C3Sc4cc(C)ccc4N3C(=O)N2)cc1 (centres undefined),i
CC(C)(C)c1cn2c3ccccc3nc2n1CCCO,i
COc1cccc(CSc2ccc(S(=O)(=O)N3CCOCC3)cc2C(=O)N2CC(C)CC(C)C2)c1OC (centres undefined),5
COC(=O)C1C(=O)C2=C(CC1C)NC(C)=C(C(=O)OC(C)C)C2c1cccc(F)c1 (centres undefined),9
CCOCCOC(=O)C1=C(C)NC2=C(C(=O)C(C(=O)OC)C(C)C2)C1c1ccccc1OC(C)C (centres undefined),8
CCOCCCNC(=O)C1CCN(S(=O)(=O)N2CC(C)CC(C)C2)CC1 (centres undefined),i
COc1ccccc1NC(=O)c1cc(N2C(=O)C3C4CCC(C4)C3C2=O)ccc1Cl (centres undefined),i
CCCCCC1(C(=O)OCC)CC(C)(c2csc(N)n2)OC1=O (centres undefined),i
CC(C)Cn1cc(C(=O)N2CC(C)CC(C)C2)c2c3ccccc3n(C)c2c1=O (centres undefined),5
O=C(COc1cccc(Cl)c1)Oc1ccc2c3c(c(=O)oc2c1)CCC3,2
O=c1oc2c3c(ccc2c2c1CCC2)OCN(c1ccc(Cl)cc1)C3,i
COc1cc(C2NC(=O)NC(C)=C2C(=O)OC2CCCC2)cc(OC)c1OC (centres undefined),2
COc1cc(C(C2=C(O)CC(C)(C)CC2=O)C2C(=O)CC(C)(C)CC2=O)cc(OC)c1OC (centres undefined),43
Cc1cc(C)cc(Oc2c(C(F)(F)F)oc3cc(O)ccc3c2=O)c1,3
COc1ccc(OC)c(NC(=O)C(CC(C)C)N2C(=O)c3ccccc3C2=O)c1 (centres undefined),10
CN(C)c1ccc(C(c2cc(C(C)(C)C)c(O)c(C(C)(C)C)c2)N2CCOCC2)cc1 (centres undefined),29
CC(=O)Oc1cccc(N2C(=O)C3C4C=CC(C4=C(C)C)C3C2=O)c1 (centres undefined),i
CCOC(=O)C(CC)Oc1ccc2c3c(c(=O)oc2c1C)CCC3 (centres undefined),i
COc1ccc(C(C)=O)cc1N1C(=O)C2C3C=CC(CC3)C2C1=O (centres undefined),i
CC(=O)Nc1ccc(S(=O)(=O)NCC2CCC(C(=O)NCc3ccc4c(c3)OCO4)CC2)cc1 (centres undefined),i
CN(C)Cc1c(O)ccc2c(=O)c(Oc3ccc(-c4ccccc4)cc3)c(C(F)(F)F)oc12,i
CC1CCN(S(=O)(=O)N2CCC(C(=O)NCc3ccc4c(c3)OCO4)CC2)CC1,i
COc1ccc(N2C(=O)C3C4CCC(C4)C3C2=O)cc1OC (centres undefined),i
CCCCCn1c(SCC(=O)OCC)nc2cc(C(=O)O)ccc2c1=O,19

# (list continues)
SMILES,FPR
CCCOc1ccccc1C1C2=C(CC(C)(C)CC2=O)N(CC(=O)O)C2=C1C(=O)CC(C)(C)C2,i
C#CCN1C(=O)C2(C(C#N)=C(N)OC3=C2C(=O)CC(C)(C)C3)c2ccccc21 (centres undefined),5
O=C(CSc1c2c(nc3ccccc13)CCCC2)N1CCN(c2ccc([N+](=O)[O-])cc2)CC1,i
CC(C)Cn1cc(C(=O)NCCN2CCc3ccccc3C2)c2c3ccccc3n(C)c2c1=O,4
O=S(=O)(c1cccc2cccnc12)N1CCCCC1c1cccnc1 (centres undefined),i
O=C(CSc1nc2ccccc2c(=O)n1CC1CCC(C(=O)NCc2ccccc2)CC1)Nc1ccccc1Cl (centres undefined),i
CC(=O)Nc1ccc(S(=O)(=O)NCC2CCC(C(=O)NC3CCCC3)CC2)cc1 (centres undefined),i
CCOC(=O)Cn1c(C)c(Br)c(COC)c(C#N)c1=O,i
CCc1ccc(NC(=O)CSc2c3c(nc4ccccc24)CCCC3)cc1,i
CCOc1ccc2c(c1)C(C)=CC(C)(C)N2C(=O)Nc1ccc(F)cc1,i
CCOc1ccc(C2=NN3C(C2)c2cccc(OC)c2OC32CCC(C)CC2)cc1 (centres undefined),4
CC(C)(C)c1cc(CN(CCO)Cc2cc(C(C)(C)C)c(O)c(C(C)(C)C)c2)cc(C(C)(C)C)c1O,i
CC1(C)CC(=O)c2cn(-c3ccc(Oc4ccccc4)cc3)c(=N)c(C#N)c2C1,i
O=C1NCCCCC1Nc1ccc(N2C(=O)CCCC2=O)cc1[N+](=O)[O-] (centres undefined),i
CCCCN(Cc1ccccc1)S(=O)(=O)c1cccc2nsnc12,i
O=C(C1CCC(CNS(=O)(=O)c2ccc(Br)s2)CC1)N1CCCCCC1 (centres undefined),1
COc1ccc(CNC(=O)C2CCC(CNS(=O)(=O)c3ccccc3)CC2)cc1 (centres undefined),i
CCC(C)C(NS(=O)(=O)c1cccc2nsnc12)C(=O)O (centres undefined),i
CN(C(=O)c1ccccn1)C1(C(=O)NC2CCCCC2)CCCCC1,i
COc1cc2c(C(=O)N(C)c3cc(Cl)ccc3OC)cn(CC(C)C)c(=O)c2cc1OC,i
CCOC(=O)c1c(NC(=O)C2C3C=CC(C3)C2C(=O)O)sc2c1CCC(CC)C2 (centres undefined),26
COc1ccc(NS(=O)(=O)c2ccc3c(c2)[C@H]2C=CC[C@H]2[C@@H](c2ccc(F)cc2)N3)cc1,i
CCC(C)OC(=O)C1=C(C)NC2=C(C(=O)C(C(=O)OC)C(C)C2)C1c1ccc2c(c1)OCO2 (centres undefined),2
CCOc1ccccc1NC(=O)c1nc2nc(C)cc(C(F)F)n2n1,7
CCc1cc2c3c(c(=O)oc2cc1OCC(=O)OC)CCCC3,i

# Compounds shown so far with a tert-butyl group, in the order listed:
SMILES,FPR
CC(C)(C)c1cn2c3ccccc3nc2n1CCCO,i
CN(C)c1ccc(C(c2cc(C(C)(C)C)c(O)c(C(C)(C)C)c2)N2CCOCC2)cc1 (centres undefined),29
CC(C)(C)c1cc(CN(CCO)Cc2cc(C(C)(C)C)c(O)c(C(C)(C)C)c2)cc(C(C)(C)C)c1O,i

# By substructure: those above with an NH in an aromatic ring
SMILES,FPR
CC(C)CC(C(=O)Nc1ncn[nH]1)N1C(=O)c2ccccc2C1=O (centres undefined),i
O=C(NC1(C(F)(F)F)C(=O)Nc2c1c(=O)[nH]c(=O)n2-c1ccc(F)cc1)c1ccccc1Cl (centres undefined),11
CCCc1c(C(=O)OCC)[nH]c2c1C(=O)CC(c1ccc(F)cc1)C2 (centres undefined),15

# (list continues)
SMILES,FPR
COc1ccc(C2NC(=O)NC(C)=C2C(=O)OC2CCCC2)cc1 (centres undefined),i
CCOC(=O)C1C(=O)C=C(c2ccc(F)cc2)CC1c1cccc([N+](=O)[O-])c1 (centres undefined),i
COC(=O)C1C(=O)C2=C(CC1C)NC(C)=C(C(=O)OCc1ccccc1)C2c1ccc2c(c1)OCO2 (centres undefined),10
CC(=O)N1N=C(c2cnccn2)OC12CCC(C(C)(C)C)CC2 (centres undefined),6
COC(=O)C1C(=O)C2=C(CC1C)NC(C)=C(C(=O)OCCOc1ccccc1)C2c1ccc(O)cc1 (centres undefined),1
Cc1ccc(CNC(=O)CSc2nc3ccccc3c(=O)n2CC2CCC(C(=O)NCc3ccco3)CC2)cc1 (centres undefined),i
Cc1nn(-c2ccccc2)c(OC(=O)C2CCCC2)c1Sc1ccccc1[N+](=O)[O-],i
CCOC(=O)c1cnc2cc(C(F)(F)F)ccc2c1N1CCN(C)CC1,i
CC(C)CN(CC(C)C)S(=O)(=O)N1CCC(C(=O)NC2CCCCC2C)CC1 (centres undefined),i
CC(C)(C)C1CCC2Oc3c(cc(NS(=O)(=O)c4cccc([N+](=O)[O-])c4)c4ccccc34)C2C1 (centres undefined),11

# 2 records picked at random from the list so far:
SMILES,FPR
COc1ccc(C2NC(=O)NC(C)=C2C(=O)OC2CCCC2)cc1 (centres undefined),i
CC(=O)N1N=C(c2cnccn2)OC12CCC(C(C)(C)C)CC2 (centres undefined),6

# Bioassay records (PubChem)

# Some of the compounds tested. The share of hits here may be higher or lower than overall.
